# Source: PubChem BioAssay
# Calb FLC: C. albicans growth inhibition with fluconazole, primary screen, CaCi-2 strain, Alamar Blue fluorescence; C. albicans CaCi-2 (fluconazole-resistant clinical isolate) + fluconazole, 48 h; growth inhibition, % (no concentration beside the values); actives 0.57% (n = 300,000); AID 1979, 2009;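 active = most replicates above 75%; inconclusive = exactly half above 75%; inactive = most below 75%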;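 note: all wells also contain fluconazole at 8 µg/ml as a sub-toxic cotreatment; 0% = median of DMSO wells and 100% = median of geldanamycin control wells; wells of about 8 µL received 7.5 nL stock; the first replicate is given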
# Beta2AR agonist: beta2AR agonists driving receptor internalization, primary screen, cell-based, FAP fluorogen, flow cytometry; Am2.2-beta2AR cells; reference of the scale not given here; Beta-2 adrenergic receptor (Homo sapiens), P07550; response, % (test concentration not listed); actives 0.43% (n = 340,000);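 active = response above a set limit, near 3 SD of response in nonfluorescent compounds, cut at about 42% in these data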;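 note: stock transfer was 100 nL into about 11 µL; a reference agonist was the positive control; negative values mostly stem from fluorescent compounds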
# Target sequence (P07550 whole entry, looked up): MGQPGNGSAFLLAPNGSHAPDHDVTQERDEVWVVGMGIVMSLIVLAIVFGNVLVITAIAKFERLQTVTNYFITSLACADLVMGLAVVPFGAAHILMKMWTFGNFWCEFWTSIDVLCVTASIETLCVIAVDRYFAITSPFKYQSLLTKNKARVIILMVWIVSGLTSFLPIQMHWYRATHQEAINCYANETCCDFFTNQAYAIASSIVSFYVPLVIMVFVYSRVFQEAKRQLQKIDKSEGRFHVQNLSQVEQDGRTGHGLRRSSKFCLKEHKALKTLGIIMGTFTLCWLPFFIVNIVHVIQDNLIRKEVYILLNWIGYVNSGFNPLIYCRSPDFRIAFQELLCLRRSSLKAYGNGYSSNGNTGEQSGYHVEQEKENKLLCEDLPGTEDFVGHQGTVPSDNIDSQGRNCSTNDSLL
# RanGTP-Impb inh: inhibitors of RanGTP-importin-beta interaction, primary screen, biochemical, FRET, CFP-Ran, YFP-importin-beta, homogeneous; Ran GTPase (GTP-bound) - importin-beta complex; cell-free CFP-Ran/YFP-importin-beta FRET ratio; inhibition, % (no concentration beside the values); actives 1.1% (n = 300,000); AID 2216, 2009;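 active = most replicates above 15%; inconclusive = exactly half above 15%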;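 note: 0% = DMSO wells and 100% = Ran loaded with GDP instead of GTP; wells of about 40 µL received 100 nL stock; the first replicate is given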
# LANA-H2B inh: blockers of LANA interaction with H2A/H2B – biochemical, FP readout, HTS, primary screen. Protein LANA1 (Human herpesvirus 8 type P (isolate GK18)), Q9QR71. cell-free LANA-H2A/H2B peptide, fluorescence polarization. inhibition, % (no concentration beside the values). actives 0.6% (n = 320,000). AID 2629, 2010; in the data active = inhibition mostly above about 10%, no sharp cut-off; inactive = mostly below about 6.7%;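 note: stock transfer was 7.5 nL into about 10 µL; 0% = median of vehicle wells and 100% = median of positive control wells; one replicate is shown; the record names a cut of 25% in any replicate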
# ALR inh: inhibitors of human ALR sulfhydryl oxidase, primary screen, biochemical, H2O2 detection, HRP-luminol luminescence, single point | purified ALR, DTT oxidation | inhibition, % (concentration not given with the values) | actives 3.8% (n = 290,000);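 active = mean and each replicate at 75% or more; inconclusive = only one of the two met; inactive = neither met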;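 note: stock transfer was 7.5 nL into about 7.5 µL; 0% = neutral wells and 100% = wells with inactivated enzyme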
# Target sequence (P55789 whole entry, looked up): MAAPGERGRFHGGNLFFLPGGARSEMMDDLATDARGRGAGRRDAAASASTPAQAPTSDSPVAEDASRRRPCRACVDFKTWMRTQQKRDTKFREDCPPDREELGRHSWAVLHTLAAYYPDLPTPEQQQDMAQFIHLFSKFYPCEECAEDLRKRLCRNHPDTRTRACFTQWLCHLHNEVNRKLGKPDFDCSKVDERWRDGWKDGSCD
# HNF4A DNA FP: change in binding of human HNF4A to DNA, primary screen, biochemical, fluorescence polarization, FITC-DNA | Hepatocyte nuclear factor 4-alpha (Homo sapiens), P41235 | 1 h | actives 0.3% (n = 360,000) | activity change, % at 10 µM; in the data active = activity change above about 30%, passing the limit was not always enough;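 note: controls were the assay level and a saturating level of protein; the project sought stronger binding though the title names inhibitors; some compounds called inactive have numbers as strong as hits; positive values seem to mean higher polarization but the record does not say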
# Target sequence (P41235 whole entry, looked up): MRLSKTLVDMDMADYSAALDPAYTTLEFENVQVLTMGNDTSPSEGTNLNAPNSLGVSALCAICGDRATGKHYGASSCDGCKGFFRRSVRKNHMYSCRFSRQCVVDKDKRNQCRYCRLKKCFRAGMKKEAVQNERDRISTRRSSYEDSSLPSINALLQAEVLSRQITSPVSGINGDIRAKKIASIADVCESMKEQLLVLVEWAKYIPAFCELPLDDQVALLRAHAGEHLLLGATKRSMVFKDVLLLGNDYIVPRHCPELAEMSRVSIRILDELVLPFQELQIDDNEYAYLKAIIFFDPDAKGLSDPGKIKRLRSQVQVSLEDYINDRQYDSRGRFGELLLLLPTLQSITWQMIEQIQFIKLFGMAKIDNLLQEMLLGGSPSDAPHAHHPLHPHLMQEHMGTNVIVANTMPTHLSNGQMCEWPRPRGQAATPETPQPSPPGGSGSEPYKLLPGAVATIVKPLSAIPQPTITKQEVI
# Vif A3G: inhibitors of Vif binding to APOBEC3G peptide, primary screen, biochemical, TR-FRET, GST-Vif 1-94, biotin-A3G peptide, dose response retest (AID 1117319); actives 0.57% (n = 260,000); Virion infectivity factor (Human immunodeficiency virus type 1 group M subtype B (isolate …; TR-FRET GST-Vif / biotin-A3G peptide binding; higher % means a stronger effect; test concentration not given here; strong numbers were not always called active; inhibition, %; hits with a dose series show IC50 in µM;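 active = above the screen mean plus three standard deviations and confirmed in dose response; inconclusive = results disagree or hit not tested in dose response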;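 note: Vif residues 1-94 fused to GST binding biotinylated APOBEC3G peptide 110-148; 0% = full assay without inhibitor and 100% = GST in place of GST-Vif; retest series ran down from 100 µM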
# An asterisk follows results filed as active; ? = inconclusive; . = not tested or not shown.
SMILES,Calb FLC,Beta2AR agonist,RanGTP-Impb inh,LANA-H2B inh,ALR inh,HNF4A DNA FP,Vif A3G
COCCn1c(Br)nc2c1c(=O)n(C)c(=O)n2C,18,-2,-0.8,1.6,-5,1.5,3%
CC1(C)C(=O)OC(c2ccccc2)C2(CCCC2)C1=O (configuration not stated),6,0,2.2,2.1,5,-1.6,1%
COc1ccc2nc(SCC(=O)NC(C)c3ccccc3)[nH]c2c1 (configuration not stated),.,-2,.,.,10,0.7,5%
COc1ccccc1N1CCN(C(=O)c2ccc(CSc3ccccc3)cc2)CC1,7,-6,2.9,-5.7,-56,0.4,.
C=C[C@H](CC(C)C)N(Cc1ccccc1)S(=O)(=O)N(Cc1ccccc1)[C@@H](C=C)CC(C)C,.,-4,.,5.4,0,1.1,.
CC1CC(C(F)F)n2nc(C(=O)O)cc2N1 (configuration not stated),3,-7,4.8,-2.7,-11,3.8,0%
Cc1ccc(NC(=O)CC(NCCN2CCOCC2)C(=O)O)cc1Cl (configuration not stated),-15,-5,2.1,-1.9,1,-2.5,8%
CCC(C)NS(=O)(=O)c1ccc(OCC(=O)Nc2ccc(F)cc2F)cc1 (configuration not stated),0,0,-3.6,1.5,.,1.3,9%
C/C(N)=C(/C#N)C(=O)CSc1nnc(COc2cc(C)ccc2C)o1,-3,11,-6.0,-2.2,-4,-4.5,3%
O=C(O)CCSCCC(=O)O,4,-4,-4.0,-6.8,-10,-0.6,3%
CCCn1cc(CN2CCC(Oc3ccc(C(=O)N4CCCC4)cc3)CC2)c(C)n1,-9,2,?,3.3,-11,0.8,-2%
COc1ccc(-c2cc(C(=O)Nc3cccc(S(=O)(=O)NCc4ccco4)c3)c3ccccc3n2)cc1OC,-2,10,2.0,1.6,5,3.5,.
Cc1ccc(N2C(=O)[C@@H]3C(C(=O)C(c4ccccc4)c4ccccc4)=NN[C@@H]3C2=O)cc1,5,0,-2.5,2.7,-3,-8.4,9%
CC(C)C[C@H](NC(=O)c1[nH]cnc1C(=O)N[C@@H](C)c1ccccc1)C(=O)OC(C)(C)C,4,-6,?,6.0,-1,-1.4,.
CC(/C=N/n1c(-c2ccccn2)n[nH]c1=S)=C\c1ccccc1,8,6,1.7,-0.2,96*,-2.6,-8%
O=C(CCN1C(=O)/C(=C/c2ccc(Cl)cc2)SC1=S)Nc1cccc(C(=O)O)c1,-1,11,1.2,1.7,-1,2.7,-4%
COc1ccc2c(-c3cc4ccc(OCc5ccc(F)cc5)cc4oc3=O)cc(=O)oc2c1,-19,-2,-0.6,3.8,.,4.7,?
Cc1ccc(-n2ncc3c2CCCC3NC(=O)c2cnccn2)cc1C (configuration not stated),18,-3,0.8,6.8,-5,5.6,.
CCC(c1nnc(SCC(=O)Nc2ccc(C(C)=O)cc2)n1C1CCCCC1)N(C)C (configuration not stated),-2,2,-1.9,-1.8,-4,1.4,1%
Cc1cc(NC(=O)CN2C(=O)S/C(=C\c3ccccc3)C2=O)no1,-3,-5,-0.3,-3.5,-4,-0.1,.
COc1ccc(-c2ccc(C(=O)O)o2)c([N+](=O)[O-])c1,-3,6,0.5,-4.2,-27,1.9,-4%
CC(=O)Nc1sc2c(c1C#N)CC(C)(C)NC2(C)C,8,-10,-1.1,-1.0,-13,-5.2,2%
CCN(CC(=O)NCc1cccs1)C(=O)c1cccc(S(=O)(=O)N2CCc3ccccc32)c1,-9,-1,-3.8,-4.6,0,0.2,2%
COC(=O)C/C(O)=C(/N=Nc1cccc(C(F)(F)F)c1)C(=O)OC,-23,12,1.2,4.0,-23,-0.7,.
COc1cccc(C(=O)C2CCCN(C(=O)c3cccc(C#CC(C)(C)O)c3)C2)c1 (configuration not stated),10,-4,-1.0,-0.8,0,0.8,0%
Cc1ccc2nsnc2c1NC(=O)c1ccc(-c2cc(Cl)ccc2Cl)o1,-4,17,3.5,5.9,-7,3.8,7%
O=C(CN1C(=O)NC2(CCCC2)C1=O)Nc1ccc(C(F)(F)F)cc1,2,20,?,2.2,0,-0.5,.
CCN(Cc1ccccc1)C(=O)c1cc(S(=O)(=O)N2CCOCC2)cn1C,2,3,2.3,-1.9,-2,-0.9,.
O=C(Cn1nnc2ccccc21)NCc1ccccc1,-1,4,0.3,5.8,-2,2.6,9%
CC(=O)Nc1ccc(NC(=O)CSc2nc3c(=O)n(C)c(=O)n(C)c3n2C)cc1,-10,-8,1.1,.,.,2.6,2%
CCN1/C(=C2\C(=O)N(C)C(=S)N2C)C=Cc2ccccc21,-8,6,1.4,-0.6,43,-0.6,16%
C=CCc1c(C)[nH]c(=O)[nH]c1=O,-1,10,?,-3.5,-3,0.3,4%
Cc1c(NC(=O)c2cc(-c3ccccc3O)on2)c(=O)n(-c2ccccc2)n1C,3,-29,-0.3,-1.9,4,2.2,.
Cc1cc(=O)oc2cc(OCC(=O)Nc3c(Cl)cccc3C(F)(F)F)ccc12,4,-3,-0.3,-0.8,-2,4.5,-1%
O=C(CCc1n[nH]c(=O)[nH]c1=O)N1CCOCC1,5,10,6.2,4.1,13,3.2,-4%
CC1CN(C(=S)NC2CCCC2)CC(C)O1 (configuration not stated),4,5,?,-2.2,-8,0.5,2%
O=C(NN=Cc1ccccc1Cl)c1ccc([N+](=O)[O-])cc1,.,-4,.,.,.,3.6,-3%
Cc1ccccc1CSCC(=O)NCc1ccco1,-2,6,-0.7,0.9,88*,-2.8,17%
Cc1cc(C)cc(NC(=O)N2C3CCCC2CC(NC(=O)C2CC2)C3)c1 (configuration not stated),12,3,-2.8,-4.8,.,-0.6,.
COc1ccc(/[N+]([O-])=C/c2ccoc2)cc1,.,-3,.,-5.3,12,2.7,.
Cc1cccc(-c2noc(CN(C(=O)c3ccc(Br)o3)C(C)C)n2)c1,-7,-8,3.9,-3.4,8,3.1,3%
COc1cc(CNc2ccc3[nH]c(=O)[nH]c3c2)ccc1OCc1ccc(C)cc1,-4,6,0.2,-0.8,27,4.7,-7%
COC(=O)c1cn(-c2ccccc2)nc1-c1ccc(OC)c(OC)c1,29,6,2.9,3.9,3,0.8,.
CCCc1cc(=O)oc2cc(OCC(=O)NCc3ccccn3)ccc12,-7,-10,-5.0,1.6,-1,4.0,.
COc1ccc(CCc2cc(OC)cc(=O)o2)cc1,3,-13,-0.4,3.1,-7,-0.3,.
COc1ccc(CCNC(=O)CSc2ccccn2)cc1OC,1,-1,-1.5,2.3,39,4.1,.
Cn1nc(C(F)(F)F)c(-c2ccccc2)c1NC(=O)c1nccnc1C(=O)O,7,5,0.5,5.1,.,0.0,.
COCCCNC(=S)Nc1cccc(SC)c1,2,1,0.6,-2.0,2,1.1,.
CCCCN(C(=O)c1ccc(Cl)cc1)C1CC2CCC(C1)N2C (configuration not stated),-6,13,3.8,-1.4,-34,-0.8,-3%
CCCCc1c(O)nc(SCC(=O)Nc2ccc3c(c2)CCC3)[nH]c1=O,1,2,2.3,0.9,99*,0.5,14%
CN(c1cccc(Cl)c1)S(=O)(=O)c1cccc(C(=O)Nc2ccc3c(c2)CCC3)c1,4,-7,5.2,-3.8,8,-0.4,11%
CC1CCCN(C(=O)COC(=O)CSc2ccc(C(N)=O)cc2[N+](=O)[O-])C1 (configuration not stated),.,5,-2.6,-5.0,-2,-2.1,0%
Cc1ccc(OCCSc2ncccn2)c(C)c1,4,-13,2.4,-18,.,0.3,-15%
COC(=O)c1sccc1NC(=O)c1cc2c(s1)CCCC2,-10,5,-2.5,5.2,26,-0.8,-3%
C1CC2CN(c3nc4nonc4nc3N3CCSCC3)CCN2C1 (configuration not stated),-3,3,?,-4.3,-9,6.0,.
CN(C)c1ccc(/C=N\Nc2nc(-c3ccccc3)cc(=O)[nH]2)cc1,22,-4,1.4,.,.,-0.9,2%
CC(C)NC(=O)c1ccc(NC(=O)CC2SC(N3CCCCC3)=NC2=O)cc1 (configuration not stated),.,1,.,-4.3,2,-4.5,9%
CCCCNC(=O)Cn1c(-c2ccc(OC)cc2)noc1=O,10,7,12,0.0,-4,1.1,32%
O=C(NCc1ccc(F)cc1)N1CCN(C(=O)c2ccccc2)CC1,.,2,.,.,.,3.1,-7%
CCOC(=O)c1cnc2c(OC)cccc2c1N1CC(C)CC(C)C1 (configuration not stated),1,0,4.9,-0.7,-5,3.0,1%

# 3 entries already listed, sorted by length of the SMILES, low to high:
SMILES,Calb FLC,Beta2AR agonist,RanGTP-Impb inh,LANA-H2B inh,ALR inh,HNF4A DNA FP,Vif A3G
CCCCNC(=O)Cn1c(-c2ccc(OC)cc2)noc1=O,10,7,12,0.0,-4,1.1,32%
CCCCc1c(O)nc(SCC(=O)Nc2ccc3c(c2)CCC3)[nH]c1=O,1,2,2.3,0.9,99*,0.5,14%
CN(C)c1ccc(/C=N\Nc2nc(-c3ccccc3)cc(=O)[nH]2)cc1,22,-4,1.4,.,.,-0.9,2%

# Additional records follow:
SMILES,Calb FLC,Beta2AR agonist,RanGTP-Impb inh,LANA-H2B inh,ALR inh,HNF4A DNA FP,Vif A3G
COc1ccc(C2=NN(c3ccccc3)C(c3cccs3)C2)cc1 (configuration not stated),3,11,-1.5,3.4,-5,-2.3,5%
CCCn1nnc(NC(=O)C(c2ccccc2)c2ccccc2)n1,8,1,3.7,-1.0,-12,-2.0,4%
COCC(C)NS(=O)(=O)c1ccc(NC(=O)C(Cc2ccccc2)NC(N)=O)cc1 (configuration not stated),-14,0,-0.5,3.4,-5,-3.3,?
COc1ccc([C@@H]2Sc3ccccc3NC(=O)[C@@H]2O)cc1,4,-4,0.0,0.5,-5,3.3,.
Cc1ccc(C)c(S(=O)(=O)c2c(C)cc(C)nc2Cl)c1,4,-4,3.1,4.1,.,2.8,1%
CN=Cc1nc(-c2ccccc2)oc1O,-3,0,0.4,5.7,1,-0.1,-9%
CN(CC(=O)NNC(=O)c1cccnc1)S(=O)(=O)c1cc(Cl)ccc1Cl,-5,-8,-2.3,-3.2,-6,-3.8,27%
Cc1ccc(NS(=O)(=O)c2ccc3c(c2)oc(=O)n3C)cc1F,3,-17,1.2,5.6,-3,6.7,-7%
C#C[C@]1(OC(C)=O)CCC2C3CCC4=CC(=O)CC[C@@H]4C3CC[C@@]21C (some centres not stated),.,8,-1.9,-6.1,-8,-0.2,.
C/C(=N\NC(=O)c1c[nH]c2ccccc12)c1ccc2c(c1)OCO2,-7,-2,-0.6,3.4,-7,0.6,22%
Cc1cc(C)c(S(=O)(=O)NCC(=O)O)cc1C,5,-2,-0.4,7.5,-15,-4.2,0%
Cn1c(=O)cc(SCC(=O)NCc2cccnc2)c2ccccc21,-8,-14,-1.6,2.9,-5,-1.9,22%
Cc1ccccc1C(=O)Nc1c(-c2cccs2)c(=O)c2ccccc2n1C,-8,-8,0.3,-6.2,-4,3.8,-17%
O=C(c1ccco1)N1CCN(Cc2cc(=O)c(OCc3cccc(F)c3)co2)CC1,1,1,?,3.5,-2,5.5,-2%
O=C1C(CSCc2ccccc2)NC(=S)N1c1ccccc1 (configuration not stated),-12,9,4.2,-5.5,-96,0.8,?
Nc1c(N2CCCCC2)c(=O)[nH]c(=O)n1-c1ccccc1,-3,4,8.9,-0.9,11,4.3,-3%
CCc1ccc(Oc2coc3cc(OC(=O)c4cc5ccccc5oc4=O)ccc3c2=O)cc1,-2,-3,7.3,2.7,-3,-0.5,.
